LANA-H2A inh = blockers of LANA interaction with H2A/H2B – biochemical, FP readout, HTS, primary screen. actives 0.6% (n = 320,000). cell-free LANA-H2A/H2B peptide, fluorescence polarization. Protein LANA1 (Human herpesvirus 8 type P (isolate GK18)), Q9QR71. AID 2629, 2010. inhibition, % (no concentration beside the values); in the data active means inhibition mostly above about 10%, no sharp cut-off; inactive means mostly below about 6.7%;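 further: stock transfer was 7.5 nL into about 10 µL; 0% = median of vehicle wells and 100% = median of positive control wells; one replicate is shown; the record names a cut of 25% in any replicate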
Vif A3G = inhibitors of Vif binding to APOBEC3G peptide, primary screen, biochemical, TR-FRET, GST-Vif 1-94, biotin-A3G peptide, dose response retest (AID 1117319); one-dose inhibition, %; IC50 in µM for titrated hits; TR-FRET GST-Vif / biotin-A3G peptide binding; higher % means a stronger effect; test concentration not given here; strong numbers were not always called active; actives 0.57% (n = 260,000); Virion infectivity factor (Human immunodeficiency virus type 1 group M subtype B (isolate …;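 active means above the screen mean plus three standard deviations and confirmed in dose response; inconclusive means results disagree or hit not tested in dose response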;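 further: Vif residues 1-94 fused to GST binding biotinylated APOBEC3G peptide 110-148; 0% = full assay without inhibitor and 100% = GST in place of GST-Vif; retest series ran down from 100 µM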
Beta apoptosis = inhibitors of cytokine-induced beta cell apoptosis, primary screen, luminescence | AID 435005, 2010 | protection from apoptosis, % (concentration not given with the values) | INS-1E cytokine-induced death, ATP luminescence, 48 h; percent of positive-control rescue, neutral wells zero | actives 0.8% (n = 300,000);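 active means all replicates at 75% or more, or half of them and the mean; inconclusive means half reach 75% but not the mean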;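 further: 0% = cytokine-treated negative control wells and 100% = positive control rescue; higher means more ATP so stronger rescue from cytokine killing; wells of about 40 µL received 100 nL stock; the first replicate is given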
T cruzi inh = inhibitors of intracellular T. cruzi growth, primary screen, luminescence, NIH3T3 host cells; T. cruzi beta-gal in NIH3T3, 90 h; inhibition, % (test concentration not listed); actives 1.4% (n = 300,000); AID 1885, 2009;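 active means mean inhibition across valid replicates above about 55%, limit read from the data; inconclusive means mean below that limit but half or more replicates reach it; inactive means mean below it, under half of replicates reach it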;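 further: signal also drops with host cell toxicity which is not excluded here; 0% = plate median of DMSO wells and 100% = zero luminescence signal; higher percent means less beta-gal luminescence so fewer parasites; stock transfer was 50 nL into about 50 µL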
Calb FLC = C. albicans growth inhibition with fluconazole, primary screen, CaCi-2 strain, Alamar Blue fluorescence; actives 0.57% (n = 300,000); growth inhibition, % (test concentration not listed); C. albicans CaCi-2 (fluconazole-resistant clinical isolate) + fluconazole, 48 h;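 active means most replicates above 75%; inconclusive means exactly half above 75%; inactive means most below 75%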;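 further: all wells also contain fluconazole at 8 µg/ml as a sub-toxic cotreatment; 0% = median of DMSO wells and 100% = median of geldanamycin control wells; wells of about 8 µL received 7.5 nL stock; the first replicate is given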
RanGTP-Imp inh = inhibitors of RanGTP-importin-beta interaction, primary screen, biochemical, FRET, CFP-Ran, YFP-importin-beta, homogeneous | cell-free CFP-Ran/YFP-importin-beta FRET ratio | Ran GTPase (GTP-bound) - importin-beta complex | AID 2216, 2009 | inhibition, % (no concentration beside the values) | actives 1.1% (n = 300,000);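 active means most replicates above 15%; inconclusive means exactly half above 15%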;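 further: 0% = DMSO wells and 100% = Ran loaded with GDP instead of GTP; wells of about 40 µL received 100 nL stock; the first replicate is given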
MLL AF4-AF9 inh = inhibitors of AF4 peptide binding to AF9, primary screen, biochemical, AlphaScreen, biotin-AF4 peptide, FLAG-AF9, single point; actives 0.47% (n = 350,000); Protein AF-9 (Homo sapiens), P42568; inhibition, % at 10 µM; AID 651704, 2012;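 active means every replicate reaching a set inhibition limit, whatever the replicate mean, cut at about 25% in these data; inconclusive means mean inhibition reaches that limit but some replicates miss it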;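 further: 0% = plate neutral control median and 100% = total signal loss; the record names both 10 and 1 µM as test concentration; the first replicate is given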
Target sequence (P42568 whole entry, looked up): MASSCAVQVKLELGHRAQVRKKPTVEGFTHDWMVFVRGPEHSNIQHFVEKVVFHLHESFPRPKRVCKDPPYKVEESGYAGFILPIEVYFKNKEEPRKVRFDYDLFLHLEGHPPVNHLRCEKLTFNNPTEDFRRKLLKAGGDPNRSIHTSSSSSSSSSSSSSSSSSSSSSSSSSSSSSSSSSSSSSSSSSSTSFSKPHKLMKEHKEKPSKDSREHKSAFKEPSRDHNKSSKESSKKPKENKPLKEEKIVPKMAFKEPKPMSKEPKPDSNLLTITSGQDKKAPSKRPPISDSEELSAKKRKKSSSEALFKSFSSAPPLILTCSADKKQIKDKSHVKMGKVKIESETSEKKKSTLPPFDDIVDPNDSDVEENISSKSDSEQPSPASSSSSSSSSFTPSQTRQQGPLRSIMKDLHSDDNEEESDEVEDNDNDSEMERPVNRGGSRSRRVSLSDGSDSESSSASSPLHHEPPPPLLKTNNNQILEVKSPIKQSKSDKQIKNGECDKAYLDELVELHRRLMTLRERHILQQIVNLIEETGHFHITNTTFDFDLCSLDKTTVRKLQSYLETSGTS
A1 inh = caspase 3/7 activation in MEF A1-2A-BIM cells, primary screen, A1 inhibitor project, cell-based, luminescence, HTS | Caspase-Glo 3/7 luminescence, 3 h; percent of clofoctol response, vehicle zero | caspase activation, % (test concentration not listed) | actives 0.066% (n = 330,000) | AID 2462, 2010;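 active means over half of replicate activation scores above 10%, or exactly half above 10 with the replicate mean above 10; inconclusive means replicate mean below 10 yet half the replicates above 10; inactive means over half of replicates below 10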;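 further: wells of about 30 µL received 50 nL stock; many hits fall short of the cut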
* hit, by the source's call; ? = inconclusive; · = no result given; & = joins results of further samples.

No.	Molecule	LANA-H2A inh	Vif A3G	Beta apoptosis	T cruzi inh
1	CC(C)C[C@H]1C(=O)N2CCC[C@H]2[C@]2(O)O[C@](NC(=O)[C@@H]3C=C4c5cccc6[nH]c(Br)c(c56)CC4N(C)C3)(C(C)C)C(=O)N12 (stereo not given in full)	-7.1	22%	4	24
2	COc1cccc(CN2CC(C(=O)NCC3CCOCC3)CCC2=O)c1 (stereo not given)	2.1	4%	-5	-10
3	CCn1c(=O)c(=O)n(CC)c2cc(S(=O)(=O)N3CCc4ccccc43)ccc21	-0.6	2%	5	22
4	Clc1ccc(C2CC(c3ccco3)n3ncnc3N2)cc1Cl (stereo not given)	-1.7	6%	2	12
5	CC(C)C(NS(=O)(=O)c1cccc2nsnc12)C(=O)Nc1nc2ccc(Cl)cc2s1 (stereo not given)	·	2%	·	8
6	COc1ccc(OC)c(C2N(c3ccccn3)C(=O)C3CCCN32)c1 (stereo not given)	2.1	-10%	-4	-19
7	COc1cc(NC2c3ccccc3C(=O)N2c2cc(C)ccn2)cc(OC)c1OC (stereo not given)	0.5	?	-3	6
8	CCCNS(=O)(=O)c1cc2c3c(c1)CCN3C(=O)CC2	5.7	·	-2	0

No.	Calb FLC	RanGTP-Imp inh	MLL AF4-AF9 inh	A1 inh
1	·	-8.0	20	-0.6
2	-1	1.8	-0.7	-0.4
3	-5	-3.0	-1.5	-1.0
4	13	-2.5	·	2.5
5	-4	2.3	4.8	·
6	-2	-1.2	·	0.1
7	-2	-1.6	1.0	1.6
8	-12	5.3	-5.3	0.8

Later entries
No.	Molecule	LANA-H2A inh	Vif A3G	Beta apoptosis	T cruzi inh
9	CCC/C=C(\CCC)C(NS(=O)(=O)c1ccc(C(F)(F)F)cc1)c1ccccc1 (stereo not given)	-0.1	19%	53	40
10	Oc1ccc(/C=N/NC(=S)N2CCOCC2)cc1	-3.6	9%	10	-4
11	Oc1ccccc1CNCCCN1CCOCC1	1.5	·	-5	0
12	Cc1cccc(Cn2c(N3CCc4ccccc4C3)nc3c2c(=O)[nH]c(=O)n3C)c1	1.0	4%	-6	8
13	CCCn1c(N2CCOCC2)nc2c1c(=O)[nH]c(=O)n2C	2.7	12%	-4	-19
14	O=C(Cc1cccs1)Nc1cccc(C(=O)Nc2ccco2)c1	0.4	30%	-1	·
15	O=C(Nc1ccc(C(=O)NCc2ccccc2Cl)cc1)C1=CSCCO1	-8.0	5%	·	17
16	CN(C)S(=O)(=O)c1ccc(NC(=O)N2CCN(c3ccccc3Cl)CC2)cc1	-3.3	14%	0	-1

No.	Calb FLC	RanGTP-Imp inh	MLL AF4-AF9 inh	A1 inh
9	14	1.7	·	-0.3
10	-12	0.1	7.6	-1.6
11	5	0.7	-5.1	0.1
12	?	-2.1	·	1.9
13	-6	4.0	0.0	0.1
14	·	·	·	-1.1
15	-8	0.2	-2.1	-0.3
16	-6	4.7	·	1.5

Next records follow:
No.	Molecule	LANA-H2A inh	Vif A3G	Beta apoptosis	T cruzi inh
17	FC(F)(F)c1cc(-c2cccs2)nc(N2CCOCC2)n1	0.5	-11%	4	19
18	CCc1c(C)sc(NC(=O)/C=C/C(=O)O)c1C(N)=O	-1.7	-6%	-1	9
19	O=C(CSc1oc(-c2ccc(F)cc2)nc1S(=O)(=O)c1ccc(F)cc1)NCC1CCCO1 (stereo not given)	3.8	6%	1	-5
20	Cc1nc(OCC(=O)c2ccc(Cl)cc2)c(C#N)c2c1COC(C)(C)C2	3.2	-15%	5	22
21	O=C(NNC(=O)c1ccccc1Cl)c1cccnc1	1.1	·	-3	4
22	CSCC(=O)Nc1cc(C)on1	-2.3	·	-5	-23
23	Cc1csc(CN(C)C(=O)C2CCC(=O)N(CCN(C)C)C2)n1 (stereo not given)	3.1	·	-5	-15
24	O=C(COc1coc(CN2CCN(c3ccccc3F)CC2)cc1=O)Nc1ccccc1	4.1	3%	·	-5

No.	Calb FLC	RanGTP-Imp inh	MLL AF4-AF9 inh	A1 inh
17	-4	2.2	·	-0.1
18	21	0.3	-3.2	0.3
19	1	-3.4	·	0.0
20	10	2.2	·	0.5
21	5	5.0	-8.2	0.6
22	-4	3.3	·	0.1
23	9	-1.1	-2.5	0.4
24	3	?	-1.1	-1.0

The listing continues:
No.	Molecule	LANA-H2A inh	Vif A3G	Beta apoptosis	T cruzi inh
25	CS(=O)(=O)Nc1cccc2cccnc12	-0.8	3%	4	·
26	CCC1Sc2ccc(S(=O)(=O)CCC(=O)NCc3ccc(C)o3)cc2NC1=O (stereo not given)	3.6	·	-2	3
27	Cc1c(NC(=O)c2cc(Br)ccc2Cl)cccc1-n1cnnn1	-2.5	·	4	·
28	Cc1ccc(C(=O)O)cc1S(=O)(=O)N1CCSCC1	6.5	3%	·	4
29	O=C(COc1ccc2c3c(c(=O)oc2c1)CCC3)NCc1cccnc1	0.8	·	5	0
30	O=C(N/N=C/c1ccc(-c2ccccc2C(=O)O)o1)c1cccs1	2.0	?	-35	-6
31	CN(C1CCCCC1)S(=O)(=O)c1ccc(NC(=O)C2CCCCC2)cc1	-0.1	1%	17	-3
32	O=C(c1cccs1)N1CCN(c2ccc(F)cc2)CC1	5.8	4%	2	-19

No.	Calb FLC	RanGTP-Imp inh	MLL AF4-AF9 inh	A1 inh
25	·	·	·	0.5
26	6	-1.6	-4.0	-0.9
27	·	·	?	-0.3
28	-2	0.8	·	1.5
29	12	3.0	0.5	0.9
30	3	-3.8	·	-4.4
31	0	2.5	·	-2.9
32	-7	0.4	·	-0.3

The results go on:
No.	Molecule	LANA-H2A inh	Vif A3G	Beta apoptosis	T cruzi inh
33	N#Cc1c(-c2ccco2)cc(-c2ccc(F)cc2)nc1N	-1.5	28%	-34	-9
34	COc1cccc(C(=O)Nc2cnc(NC(=O)c3ccco3)cc2C)c1	0.2	8%	3	6
35	FC(F)(F)c1cc(C(F)(F)F)c2ccc(N/N=C/c3ccccc3)nc2n1	6.2	11%	·	-23
36	COc1ccc(-n2cnnc2SC(C)C(=O)Nc2cccc([N+](=O)[O-])c2)cc1 (stereo not given)	1.2	14%	7	-32
37	Cc1ccc(NC(=O)Cn2c(=O)oc3ccccc32)cc1Cl	-7.3	0%	-2	-8
38	CCOCCCn1c(SCC(=O)Nc2ccc(OC)cc2)nc2ccccc2c1=O	-1.4	-187%	-8	-12
39	Clc1ccc(NCc2cccnc2)c(Cl)c1	2.4	1%	-9	-1
40	COc1ccc(-c2cc(C(F)F)n3ncc(C(=O)NCC4CCCO4)c3n2)cc1 (stereo not given)	2.0	-5%	10	25

No.	Calb FLC	RanGTP-Imp inh	MLL AF4-AF9 inh	A1 inh
33	23	4.8	·	0.0
34	5	-2.3	·	-0.8
35	12	-1.6	·	1.0
36	-1	-0.7	·	0.4
37	-16	-6.2	-0.1	1.8
38	-1	1.0	2.2	-0.2
39	4	4.7	-2.7	0.1
40	-3	58*	·	-1.5

Nos. 36 through 39 of the list above:
No.	Molecule	LANA-H2A inh	Vif A3G	Beta apoptosis	T cruzi inh
36	COc1ccc(-n2cnnc2SC(C)C(=O)Nc2cccc([N+](=O)[O-])c2)cc1 (stereo not given)	1.2	14%	7	-32
37	Cc1ccc(NC(=O)Cn2c(=O)oc3ccccc32)cc1Cl	-7.3	0%	-2	-8
38	CCOCCCn1c(SCC(=O)Nc2ccc(OC)cc2)nc2ccccc2c1=O	-1.4	-187%	-8	-12
39	Clc1ccc(NCc2cccnc2)c(Cl)c1	2.4	1%	-9	-1

No.	Calb FLC	RanGTP-Imp inh	MLL AF4-AF9 inh	A1 inh
36	-1	-0.7	·	0.4
37	-16	-6.2	-0.1	1.8
38	-1	1.0	2.2	-0.2
39	4	4.7	-2.7	0.1

(continued)
No.	Molecule	LANA-H2A inh	Vif A3G	Beta apoptosis	T cruzi inh
41	COc1ccc(CCC(=O)NC2CCCN(Cc3ccc(Cl)cc3)C2)cc1OC (stereo not given)	-3.4	·	1	45
42	COc1cc(F)cc(-c2ccc3c(c2)c(C#Cc2ccsc2)c(-c2cc(OC)cc(OC)c2)n3C)c1	6.0	·	3	·
43	O=C(/C=C/c1ccco1)Nc1ccc(Oc2ccc(Cl)cc2)cc1	2.0	?	25	23
44	CCCCn1c(N)c(Sc2ccc([N+](=O)[O-])cc2)c(=O)[nH]c1=O	-1.8	·	·	6
45	CCN(CC)S(=O)(=O)c1ccc(N2CCOCC2)c(NS(=O)(=O)c2ccc(OC)cc2)c1	-2.6	·	3	26
46	O=S(=O)(NCc1ccccn1)c1ccc2c(c1)OCCO2	-1.7	-1%	-2	-6
47	CCOC(=O)CSc1nc2c(sc(=S)n2CCc2ccccc2)c(=O)n1Cc1ccco1	-0.1	-11%&-1%	5	5
48	CCOC(=O)c1c(C)c(C(=O)NCc2ccc3c(c2)OCO3)c(C)n1C	·	14%	·	5

No.	Calb FLC	RanGTP-Imp inh	MLL AF4-AF9 inh	A1 inh
41	-3	-6.9	-1.2	0.1
42	·	·	-11	-0.8
43	0	-1.3	·	-0.5
44	1	1.2	2.4	-5.3
45	-3	-1.5	-2.1	1.2
46	-4	-3.4	·	0.8
47	-7	-7.4	·	-0.5
48	-32	-1.1	·	·

Following part
No.	Molecule	LANA-H2A inh	Vif A3G	Beta apoptosis	T cruzi inh
49	O=C(NCCc1ccccc1)C1CCC(CNS(=O)(=O)c2ccccc2)CC1 (stereo not given)	1.2	-3%	·	-6
50	O=C1CN(c2ccccc2)C(=S)N1c1ccccc1	2.2	·	-2	3
51	NS(=O)(=O)c1ccc(NC(=O)COC(=O)CSCc2ccc(F)cc2)cc1	-0.6	2%	-3	·
52	CCOC(=O)C(Cc1ccccc1)C(=O)Nc1ccc(N(CC)CC)cc1 (stereo not given)	-1.4	·	-2	6
53	CC1CCc2nc(N)c(C#N)c(-c3cccn3C)c2C1 (stereo not given)	0.3	-3%	7	6
54	FC(F)(F)c1nnc2ccc(Sc3ccccn3)nn12	-2.9	-1%	0	-2
55	CCOc1ccc(-c2csc(/C(C#N)=C\c3ccc(O)c([N+](=O)[O-])c3)n2)cc1	4.5	-2%	74	9
56	COc1ccc(N2CCN(C(=O)c3cc(=O)c4cc(C)c(C)cc4o3)CC2)cc1	-1.7	7%	-7	1
57	COc1ccc(/C=N\NC(=O)c2sc(N)nc2C)cc1OC	3.9	6%	-3	4
58	NNC(=O)c1ccc(CSc2cccc3cccnc23)cc1	-2.8	-13%	2	-18

No.	Calb FLC	RanGTP-Imp inh	MLL AF4-AF9 inh	A1 inh
49	5	5.1	2.3	1.1
50	34	-2.1	0.4	-0.9
51	·	·	0.0	1.1
52	-11	1.7	·	0.4
53	46	2.3	·	-0.9
54	?	-1.5	-0.5	0.8
55	-10	-10	·	-0.9
56	7	-0.2	-1.0	-0.7
57	-8	-3.1	·	-1.4
58	-4	-1.0	3.9	-1.8

Screening data (PubChem BioAssay)

The order is random, and some 4.3% of all compounds hit somewhere here.
